Screening results deposited in PubChem BioAssay by National Center for Advancing Translational Sciences (NCATS).
VACV Venus inh = inhibitors of vaccinia virus (Venus reporter). Vaccinia virus Venus reporter expression, fluorescence. Potency, µM (series often up to 36.5 µM), for inactives: at the highest dose activity change, negative = inhibition, actives largely listed as inhibitors. 330,000 compounds, 0.46% hits. AID 720580; active means well fitted inhibition curve with a large enough effect; inconclusive means small, poorly fitted or top-dose-only effect; inactive means no such curve, though single readings can be large or run the other way; tested in A549 cells; further: nearly all actives have a fitted effect of over 30% in size; inactives centre near -10
VACV mCherry inh = inhibitors of vaccinia virus infection (mCherry reporter signal). Vaccinia virus mCherry reporter infection, fluorescence; about a quarter of the inactives have no number. Potency, µM (doses to about 36.5 µM), without a hit: at the top dose activity change, negative = inhibition, hits mostly inhibitors. 310,000 compounds, 0.63% hits. AID 720579; active = well fitted inhibition curve with a large enough effect; inconclusive = small, poorly fitted or top-dose-only effect; inactive = no such curve, though single readings can be large or run the other way; tested in A549 cells; further: nearly all actives have a fitted effect of over 35% in size; inactives centre near -10
* marks the source's active call; other numbers are inactive results; i = inactive; ? = inconclusive; · = not tested or not shown; & = joins results of further samples; [ ] = dose if it differs, or a comment. On the % scale 0 is the no-effect control and ±100 the full control effect; potency means the concentration at half of the fitted maximal effect.

Start of the listing, in advance:
SMILES	VACV Venus inh	VACV mCherry inh
O=C(Nc1ccc2[nH]c(=O)[nH]c2c1)c1cc(F)c(F)cc1Cl	-10%	-4%
Cc1nnc(NC(=O)CSc2nc(C(C)C)nc3ccccc23)s1	-16%	-20%
CC(=O)OCC1=C(C(=O)O)N2C(=O)C(NC(=O)CCn3nc(C(F)(F)F)c(Br)c3C3CC3)C2SC1 (configuration not stated)	3%	1%

This part in full, repeating the preview:
SMILES	VACV Venus inh	VACV mCherry inh
O=C(Nc1ccc2[nH]c(=O)[nH]c2c1)c1cc(F)c(F)cc1Cl	-10%	-4%
Cc1nnc(NC(=O)CSc2nc(C(C)C)nc3ccccc23)s1	-16%	-20%
CC(=O)OCC1=C(C(=O)O)N2C(=O)C(NC(=O)CCn3nc(C(F)(F)F)c(Br)c3C3CC3)C2SC1 (configuration not stated)	3%	1%
Cc1n[nH]c(=O)nc1NCc1ccco1	-5%	·
COc1ccc(-c2cc(NC=O)c3ncc(-c4ccc(OC)c(OC)c4)n3c2)c(OC)c1	?	-22%
COc1ccc(NC(=O)CSc2nc(C)cc(C)c2C(=O)Nc2ccccc2OC)cc1	-8%	-9%
O=C(c1cnc2n(c1=O)CCS2)N1CCN(c2ccc([N+](=O)[O-])cc2)CC1	-3%	12%
COc1cc(C(=O)N2CCc3c([nH]c4ccccc34)C2c2ccc(C)cc2)cc(OC)c1OC (configuration not stated)	-12%	-25%
CCC1(c2ccc(F)cc2)NC(=O)N(CC(=O)Nc2cccnc2Cl)C1=O (configuration not stated)	-5%	-17%
COC(=O)c1ccccc1NC(=O)CN1CCC(n2nnc3cc(F)ccc32)CC1	-1%	-18%
Cc1[nH]c2ccc(C(=O)OCCN(C)C)cc2c1C	-15%	·
Nc1ccc(C(=O)NCC(=O)O)cc1	-12%&-14%	-2%&-2%
CCOC(=O)C(=O)N/N=C/c1cccc(Br)c1	-7%	i
O=C(Cc1ccccc1)Nc1sc2c(c1C(=O)Nc1ccccc1)CCCCC2	3%	-12%
OCCC1CN(Cc2c(O)ccc3ccccc23)CCN1CCc1ccccc1 (configuration not stated)	0%	?
CCCCn1c(CCC(=O)O)nc2c1c(=O)[nH]c(=O)n2CCC	-5%	-8%
C=CC[N+](C)(C)CCN1C(=O)C2C(c3ccccc3)C=CC(c3ccccc3)C2C1=O (configuration not stated)	-6%	-2%
COc1ccc(C2C(C#N)=C(N)Oc3cc(C)n(Cc4ccncc4)c(=O)c32)cc1 (configuration not stated)	-2%	·
O=C(/C=C/c1cccc([N+](=O)[O-])c1)NCCSc1ccccc1	-19%	·
CN(C(=O)Cc1ccc(Cl)c(Cl)c1)C(CN1CCCC1)c1cccc(OCC(=O)O)c1 (configuration not stated)	-4%&-3%	-13%&-11%
O=C(COc1ccc([N+](=O)[O-])cc1)N(Cc1ccccc1)Cc1ccccc1	-7%	i
O=Cc1cn(CC(=O)N2CCOCC2)c2ccccc12	-3%	-12%
O=C(COC(=O)[C@@H]1CCCN1S(=O)(=O)c1ccccc1F)c1ccccc1	-20%	-10%
COc1cc2ccccc2cc1C(=O)Nc1ccc2oc(-c3ccc(F)cc3)nc2c1	-3%	-22%

Arranged by length of the SMILES (ascending): four of the compounds above.
SMILES	VACV Venus inh	VACV mCherry inh
O=C(Cc1ccccc1)Nc1sc2c(c1C(=O)Nc1ccccc1)CCCCC2	3%	-12%
COc1ccc(C2C(C#N)=C(N)Oc3cc(C)n(Cc4ccncc4)c(=O)c32)cc1 (configuration not stated)	-2%	·
CN(C(=O)Cc1ccc(Cl)c(Cl)c1)C(CN1CCCC1)c1cccc(OCC(=O)O)c1 (configuration not stated)	-4%&-3%	-13%&-11%
C=CC[N+](C)(C)CCN1C(=O)C2C(c3ccccc3)C=CC(c3ccccc3)C2C1=O (configuration not stated)	-6%	-2%

(listing goes on)
SMILES	VACV Venus inh	VACV mCherry inh
O=C(COc1ccccc1Cl)N1CCNC1=O	0%	-8%
CC1(C)CCC[C@@]2(C)CC=C(C(=O)O)[C@@H]3C[C@]312	1%	40%[activator]
COc1ccc(C)cc1NC(=O)CSc1ccc(-c2ccco2)nn1	-19%	?
O=C(Nc1cccc(O)c1)c1noc2c1CCCCC2	-10%	-15%
COC(=O)C[N+](C)(C)C/C=C\c1ccccc1	-14%	-26%
Cc1cccnc1C(NC(=O)C1CCN(Cc2ccc(Cl)cc2)CC1)c1ccc(F)cc1 (configuration not stated)	-19%	-29%
CCCn1c(=O)c2c(nc3n2CCN3c2ccc(C)cc2)n(C)c1=O	-3%	-10%
Cc1cccc(/C=C/c2nc3ccccc3c(=O)[nH]2)c1	-15%	-22%
COc1ccc(CC2C(=O)OC(C)(C)OC2=O)c(Cl)c1OC	-12%	-6%
COc1ccc(NC(=O)CCCc2nnc3n(CCC(C)C)c(=O)c4sccc4n23)cc1Cl	-10%	-12%
COc1cc(-c2nc3nc[nH]n3c2Nc2ccc(C(C)C)cc2)ccc1O	-6%	-13%
COc1ccc(-c2nnn(CC(=O)N(CCCN3CCOCC3)C(C(=O)NC3CCCC3)c3ccc(C)o3)n2)cc1 (configuration not stated)	0%	1%

Reprinted from the results shown, 5 compounds:
SMILES	VACV Venus inh	VACV mCherry inh
Cc1cccc(/C=C/c2nc3ccccc3c(=O)[nH]2)c1	-15%	-22%
COc1ccc(CC2C(=O)OC(C)(C)OC2=O)c(Cl)c1OC	-12%	-6%
COc1ccc(NC(=O)CCCc2nnc3n(CCC(C)C)c(=O)c4sccc4n23)cc1Cl	-10%	-12%
COc1cc(-c2nc3nc[nH]n3c2Nc2ccc(C(C)C)cc2)ccc1O	-6%	-13%
COc1ccc(-c2nnn(CC(=O)N(CCCN3CCOCC3)C(C(=O)NC3CCCC3)c3ccc(C)o3)n2)cc1 (configuration not stated)	0%	1%

Continued.
SMILES	VACV Venus inh	VACV mCherry inh
COc1ccc(OCc2cc(C(=O)N3CCCC(O)C3)no2)c2ccccc12 (configuration not stated)	-9%	-3%
COc1ccc(-c2nc(/C=C3\C(C)=Nc4ccccc43)c(O)o2)cc1	-10%	-17%
CSc1nc2c(c(=O)n1-c1ccc(F)cc1)SCC2	-10%	-8%
COc1ccc(C2CC(c3cccs3)Nc3nnnn32)cc1 (configuration not stated)	-2%	8%
COCCn1c(SCC(=O)Nc2ccc3[nH]c(=O)[nH]c3c2)nc2ccccc2c1=O	-6%	-16%
O=C(COC(=O)c1ccc2ncsc2c1)Nc1ncc(Cl)cc1Cl	-13%	-19%
CC(=O)N1c2ccc(S(=O)(=O)N(C)CC(=O)NC3CCCC3)cc2CC1C (configuration not stated)	-13%	-4%
CC(=O)N(C(C)=O)c1ncc2c([nH]c3ccccc32)c1C#N	?	11µM*
Cc1ccccc1-c1nnc(-c2ccccc2)o1	-11%	i
O=C(NCCc1ccc(Cl)cc1)c1cccn1-c1nnc(N2CCCC2)s1	-10%	-16%
CCC1Oc2ccccc2N(CC(=O)NCCCN2CCCCC2CC)C1=O (configuration not stated)	-17%	i
Cc1ccc(-c2nc(N3CCCC(C)C3)c3ccccc3n2)cc1 (configuration not stated)	3%	5%
O=C1CC(c2nc(-c3ccc(Cl)cc3)no2)CN1c1ccc2c(c1)OCCO2 (configuration not stated)	0%	-4%
CC(=O)c1nn(-c2cccc(C)c2)cc1C(=O)c1cccc(Br)c1	0%	3%
CC(NC(=O)COc1ccccc1)C(=O)NCc1ccc(S(N)(=O)=O)cc1 (configuration not stated)	0%	i
COc1ccc(-n2c(=S)[nH]c3cc(C(=O)NCCCN4CCCC4=O)ccc3c2=O)cc1OC	-8%	-13%
COc1ccc(/C=C/c2c(-c3cccc(C)c3)oc3ccc(-c4ccc5c(c4)OCO5)cc23)cc1	-14%	-10%
CC(C)=CCC[C@H](C)CC1Cc2[nH]c(=S)[nH]c(=O)c2C(c2ccc(F)cc2)O1 (some centres not stated)	-10%	-1%
CCc1ccc(NC(=O)C(=O)N/N=C(\C)CC(=O)Nc2ccc(OC)cc2)cc1	-14%	i
COc1ccc(CCC(C)NCC2CCCCC2)cc1 (configuration not stated)	?	-26%
O=C1COC(c2ccccc2)=CN1Cc1ccccc1	-3%	-17%
CC(=O)c1ccc(OCC(=O)OCc2cc(-c3ccco3)on2)cc1	-8%	-17%
Cc1[nH]c2ccc(C(=O)NCC(C)(C)N3CCOCC3)cc2c1C	-1%	10%
CCOC(=O)c1[nH]nc(N)c1NC(=O)c1ccc(Cl)cc1Cl	-8%	-15%
CCCCCCN1CCN(C2CN(Cc3ccc(C)cc3)S(=O)(=O)C2)CC1 (configuration not stated)	-4%	4%
O=C(COC(=O)c1cc(S(=O)(=O)N2CCCCC2)ccc1N1CCOCC1)NC1CCCCC1	-6%	·
CCc1ccc2oc(-c3ccc(C)c(NC(=O)c4ccc(C#N)cc4F)c3)nc2c1	-4%	3%
COC(=O)c1[nH]c2ccc(C)cc2c1NC(=O)CN1CCN(Cc2ccccc2)CC1	?	-14%
Cc1ccc2c(c1)C1CN(C)CCC1N2C(=O)CCCN1C(=O)c2cccc3cccc(c23)C1=O (configuration not stated)	-4%	27%
CN1CCN(c2nc3cc(C(F)(F)F)ccc3n3cccc23)CC1	-21%&-17%	?
O=C(Nc1ccc(F)cc1F)C1CCCN(c2ncnc3c2nc2n3CCCCC2)C1 (configuration not stated)	-27%	-17%
COc1cccc(C=Cc2nccc3ccccc23)c1OC	?	?
Cc1cccc(N2CCN(S(=O)(=O)c3c(C)nc4scc(C)n4c3=O)CC2)c1C	-9%&-14%	-40%&-18%
OCCOCCOCCn1c2ccccc2c2ccccc21	-17%	-22%
COc1ccc(COc2ccc(C3C(S(=O)(=O)c4ccccc4)CON3C)cc2OC)cc1 (configuration not stated)	-10%	i
O=[N+]([O-])c1cc(-c2ccc(C(=S)N3CCOCC3)o2)ccc1Cl	0%	-30%
COc1cc(C)ccc1S(=O)(=O)NC(=O)C1(C)CCN1C(=O)Cc1ccccc1Cl (configuration not stated)	-3%	7%
O=C(O)CC(NC(=O)c1ccc2c(c1)OCO2)c1cccc([N+](=O)[O-])c1 (configuration not stated)	-3%	-8%
COC(=O)C1=CN(c2ccc3c(c2)OCO3)C(N)=C(C#N)C1c1ccc(-c2ccccc2)cc1 (configuration not stated)	?	?
O=C(O)CC1NC(=O)N(C2CCCCC2)C1=O (configuration not stated)	-3%	i
O=C(COc1ccccc1[N+](=O)[O-])OC1CCS(=O)(=O)C1 (configuration not stated)	-7%	-20%
Fc1cccc(Cc2c(-c3cccc(Br)c3)nc3ccc(Cl)cn23)c1	-10%	14%
COc1ccc(N(C)C(=O)c2oc(=O)c3ccccc3c2-c2ccc(C)cc2)c(OC)c1	-7%	-5%
CCOC(=O)C1=C(N)OC2=C(C(=O)CC(C)(C)C2)C1c1ccc(C)s1 (configuration not stated)	-4%	-10%
COc1ccc(OC)c(CCNC(=O)c2ccc(CS(=O)Cc3cccc(Cl)c3)o2)c1 (configuration not stated)	-14%&-9%	-13%
CCOC(=O)c1c(N)sc(C(=O)N2CCCCCC2)c1C	-20%	·
CCOC(=O)COc1ccc(CC)cc1C(=O)c1ccn2nc(-c3ccc(C)cc3)cc2n1	-7%	-18%
Cc1cc([N+](=O)[O-])nn1CC(=O)Nc1nccs1	-7%	-1%
CCC1(O)c2ccccc2-c2ncccc21 (configuration not stated)	-5%	-6%
C[C@@H]1CCC2[C@@H](C)[C@@H](O)O[C@@H]3O[C@@]4(C)CC[C@@H]1[C@@]23OO4 (some centres not stated)	-8%	8%
O=c1oc2ccccc2c(O)c1Cc1cc(Cl)c2cccnc2c1O	-5%	-1%
Cc1ccc(CSCC(=O)N(C)CC(=O)Nc2cccc(F)c2)cc1	-4%	i
CN1CCN(S(=O)(=O)c2ccc(N3CCN(c4ccccc4O)CC3)c([N+](=O)[O-])c2)CC1	-21%	-22%
CCOc1ccccc1NC(=S)NCCc1ccccc1	-22%	-11%
[O-]C(=C(C(=S)Nc1cccc2ccccc12)[n+]1ccccc1)c1ccc2c(c1)OCCO2	0%	?
Cc1ccc(C2Nc3ccccc3C(=O)N2CCN2CCNC2=O)cc1 (configuration not stated)	-13%	-25%
O=C(Nc1ccc(Cl)cc1C(F)(F)F)c1ccc(Cl)cc1	-18%	-27%
CCCCn1cnc2c1c(=O)n(CC(=O)c1cc(C)n(C)c1C)c(=O)n2CC(C)C	-27%	·
Cc1ccc(S(=O)(=O)N2C(=O)CCC2C(=O)Nc2ccc3c(c2)OCCO3)cc1 (configuration not stated)	-8%	-10%
NC(=O)c1c(NC(=O)c2cccnc2Cl)sc2c1CCCC2	-18%	-26%
Next compounds
SMILES	VACV Venus inh	VACV mCherry inh
O=C(CN1CCCCC1)N1CCN(S(=O)(=O)c2ccccc2)C1	2%	0%
Cc1cc(C)nc(SCc2cc(=O)c(OC(=O)c3ccc(Br)o3)co2)n1	-28%	?
C[C@H](NC(=O)N1CCn2c1nc1ccccc12)C(=O)N1CCCCC1	0%[7.34 µM]	5%[7.34 µM]
COc1ccc(C)cc1NC(=O)C1CCCN(S(=O)(=O)c2ccc(-n3cnnn3)cc2)C1 (configuration not stated)	-1%	8%
Cc1ccc(S(=O)(=O)C(CNC(=O)C(=O)NCCc2ccccc2)c2cccs2)cc1 (configuration not stated)	-16%	-16%
CCOC(=O)C1(Cc2cccc(F)c2)CCN(Cc2cnc(C)s2)CC1	-11%	-18%
Nc1nc(N)c2c(ccc3c2ccn3Cc2cccc([N+](=O)[O-])c2)n1	11µM*	0.35µM*
COc1ccc(Nc2cc(C(=O)NCc3ccco3)c3ccccc3n2)c(OC)c1	-7%	i
Cc1ccccc1C(=O)NN1CCOCC1	-6%	i
CN(C)C(=S)NC(=O)C12CC3(C)CC(C)(CC(C)(C3)C1)C2	-4%	i
Cc1ccc(-n2nc(CC#N)c(C#N)c2N)cc1Cl	-11%	-6%
Cc1cc(C)c(S(=O)(=O)c2ccccc2C)c(OCCN(C)C)n1	-3%	-5%
